# Source: PubChem
# MT1-MMP act inh = MT1-MMP (human) activation inhibition; P50281; HT1080 RFP-PRO-GFP cells, GFP/RFP ratio fluorescence, overnight; percent of plate control window, DMSO zero; GFP/RFP ratio change, % at 20 µM; 360,000 compounds, 0.061% hits; AID 651647;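 active means GFP/RFP ratio change of at least 30% with cell ATP level not reduced by more than half and red fluorescence within 50% of control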; further: strong numbers were not always called active
#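 Material – HT1080 RFP-PRO-GFP cells · Control set – DMSO wells and RFP-L50D-GFP cells · Incubation – overnight cell settling, then overnight compound exposure, 37 °C, 5% CO2 · Compound dosing – single-point 20 µM compound, 1% DMSO · Read-out – GFP/RFP fluorescence ratio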
# Env fusion inh = inhibitors of HIV Env-mediated cell fusion | HeLa-JRFL Env/CEM21 cell fusion, luciferase | inhibition, % at 12.3 µM | 360,000 compounds, 1.1% hits | AID 651610;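 active means mean replicate inhibition score of at least 50 and every replicate individually at or above 50; inconclusive means only one of the two criteria met; inactive means mean below 50 and not all replicates reaching 50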;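 further: 0% = plate neutral controls and 100% = maraviroc near 300 nM; one replicate is shown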
# UUG fidelity = alters start codon recognition fidelity in yeast. S. cerevisiae UUG-firefly luciferase reporter, luminescence/redox ratio. AID 602363. 350,000 compounds, 0.13% hits. activity score, % at 18.7 µM;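 active means replicate mean at a twofold rise or more, about +100% in these data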;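 further: firefly luciferase made from a UUG start codon reports start codon fidelity; reporter light over untreated wells divided by growth signal over untreated wells; some hits fall short of that in this replicate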
# CSC inhib = blocks cancer stem cells; inhibition, % at 7.5 µM; cancer stem cell-like cells viability, luminescence; 300,000 compounds, 1.1% hits;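 active means mean at 75% or more and at least half the replicates too; inconclusive means mean and replicates disagree; tested in HMLE shEcad cells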;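 further: 0% = median of negative and 100% = median of positive control wells; the first replicate is given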
# MT1-MMP act inh RFP = recorded beside MT1-MMP act inh, whose call it bears; RFP signal change, %; measured here: RFP expression control read;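 0 = vehicle wells; hits needed this value within 50% of zero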
# * marks the source's active call; other numbers are inactive results; ? = inconclusive; · = no result given; & = joins results of further samples; [ ] = another dose, or the depositor's remark.
SMILES,MT1-MMP act inh,Env fusion inh,UUG fidelity,CSC inhib,others
Cc1c(Cl)cnc(NC(=O)COC(=O)C2CC2)c1Cl,-2,·,·,-23,MT1-MMP act inh RFP=2
Cc1ccc(S(=O)(=O)N2CCCN(C(=O)CNC(=O)c3cccc(C)c3)CC2)cc1,2,·,·,-23,MT1-MMP act inh RFP=0
NS(=O)(=O)c1ccc(NC(=O)CSc2nnc(C3CC3)n2C2CC2)cc1,3,·,·,-5,MT1-MMP act inh RFP=4
CC(=O)Nc1ccc(S(=O)(=O)N(C)CC(=O)NNC(=O)Cc2nc3ccccc3n2C)cc1,3,·,·,-15,MT1-MMP act inh RFP=4
O=C(COc1ccc(C(=O)c2ccc(F)cc2)cc1)Nc1cccc(S(=O)(=O)N2CCOCC2)c1,-8,·,·,17,MT1-MMP act inh RFP=-28
O=C(NCc1ccco1)c1ccc(Cl)c(S(=O)(=O)N2CCCC2)c1,1,·,·,-10,MT1-MMP act inh RFP=-2
CCOC(=O)c1c(C)[nH]c(C(=O)COC(=O)c2cc(C)oc2C)c1C,2,·,·,-8,MT1-MMP act inh RFP=0
COc1ccccc1NC(=O)c1cccc(S(=O)(=O)N2CCN(c3ccccc3)CC2)c1,5,·,·,-2,MT1-MMP act inh RFP=-8
CCC(C(=O)N1CCN(S(=O)(=O)c2sc(C(=O)O)c(C)c2C(=O)O)CC1)c1ccccc1 (stereo not given),-1,·,·,-17,MT1-MMP act inh RFP=1
COc1ccc(NC(=O)CN2C(=O)NC(CC(C)C)C2=O)cc1S(=O)(=O)N1CCOCC1 (stereo not given),-1,·,·,-18,MT1-MMP act inh RFP=3
Cc1ccc(C(C)(C)C)cc1S(=O)(=O)Nc1ncnc2sccc12,-5,·,·,5,MT1-MMP act inh RFP=-1
COc1ccc(CN(C)C[C@H]2OCCCC[C@@H](C)Oc3ccc(NC(=O)Nc4ccc(C(F)(F)F)cc4)cc3C(=O)N([C@H](C)CO)C[C@H]2C)cc1,·,6[16.7 µM],5,·,
COCC#Cc1ccc2c(c1)O[C@@H](CN(C)C(=O)C1CCOCC1)[C@H](C)CN([C@@H](C)CO)S2(=O)=O,·,-4[16.7 µM],15,·,
O=C(CCN1CCCCC1)NCC[C@H]1CC[C@@H](NC(=O)C2CC2)[C@H](CO)O1,·,-1[16.7 µM],0,·,
COc1ccc(NC(=O)Nc2cccc3c2O[C@@H](CN(C)Cc2ccc(Oc4ccccc4)cc2)[C@@H](C)CN([C@H](C)CO)C3=O)cc1,·,-8[16.7 µM],19,·,
CC(C)CC#Cc1ccc2c(c1)O[C@@H](CN(C)C(=O)CC1CC1)[C@H](C)CN([C@@H](C)CO)S2(=O)=O,·,32[16.7 µM],0,·,
CNC[C@H]1OCCCC[C@@H](C)Oc2ccc(NC(=O)Nc3ccc4c(c3)OCO4)cc2C(=O)N([C@@H](C)CO)C[C@@H]1C,·,2[16.7 µM],35,·,
C[C@H]1CN([C@@H](C)CO)C(=O)c2cc(-c3ccc(F)cc3)cnc2O[C@@H]1CN(C)C(=O)c1ccccn1,·,10[16.7 µM],-5,·,
O=C1NCC(=O)N2[C@@H]1C[C@@H](C(=O)NCc1ccc(F)cc1)[C@H]2c1ccc(O)cc1,·,15[16.7 µM],35,·,
COc1ccc([Si](C)(C)[C@H]2[C@H](CCn3cc(CCO)nn3)O[C@@]3(C(=O)N(Cc4cccc(N5CCOC5=O)c4)c4ccccc43)[C@@H]2C)cc1,·,16[16.7 µM],9,·,
CC(C)CC#Cc1ccc2c(c1)O[C@H](CN(C)C(=O)Cc1cccnc1)[C@@H](C)CN([C@@H](C)CO)S2(=O)=O,·,3[16.7 µM],3,·,
C/C=C/c1ccc2c(c1)O[C@H](CN(C)C(=O)c1ccc3c(c1)OCO3)[C@@H](C)CN([C@@H](C)CO)S2(=O)=O,·,0[16.7 µM],-11,·,
COC(=O)c1cn(CC(=O)N2CCOCC2)nn1,·,19[16.7 µM],44,·,
C[C@H]1CCCCO[C@@H](CN(C)S(=O)(=O)c2ccccc2)[C@@H](C)CN([C@@H](C)CO)C(=O)c2cc(NC(=O)Nc3ccccc3)ccc2O1,·,15[16.7 µM],-10,·,
CC(C)C#Cc1ccc2c(c1)O[C@@H](CN(C)Cc1cccnc1)[C@@H](C)CN([C@H](C)CO)S2(=O)=O,·,-31[16.7 µM],9,·,

# Seven structures out of the list, sorted by count of non-hydrogen atoms, rising.
SMILES,MT1-MMP act inh,Env fusion inh,UUG fidelity,CSC inhib,others
COC(=O)c1cn(CC(=O)N2CCOCC2)nn1,·,19[16.7 µM],44,·,
CCOC(=O)c1c(C)[nH]c(C(=O)COC(=O)c2cc(C)oc2C)c1C,2,·,·,-8,MT1-MMP act inh RFP=0
Cc1ccc(S(=O)(=O)N2CCCN(C(=O)CNC(=O)c3cccc(C)c3)CC2)cc1,2,·,·,-23,MT1-MMP act inh RFP=0
COc1ccccc1NC(=O)c1cccc(S(=O)(=O)N2CCN(c3ccccc3)CC2)c1,5,·,·,-2,MT1-MMP act inh RFP=-8
C[C@H]1CN([C@@H](C)CO)C(=O)c2cc(-c3ccc(F)cc3)cnc2O[C@@H]1CN(C)C(=O)c1ccccn1,·,10[16.7 µM],-5,·,
CNC[C@H]1OCCCC[C@@H](C)Oc2ccc(NC(=O)Nc3ccc4c(c3)OCO4)cc2C(=O)N([C@@H](C)CO)C[C@@H]1C,·,2[16.7 µM],35,·,
C[C@H]1CCCCO[C@@H](CN(C)S(=O)(=O)c2ccccc2)[C@@H](C)CN([C@@H](C)CO)C(=O)c2cc(NC(=O)Nc3ccccc3)ccc2O1,·,15[16.7 µM],-10,·,

# Continued.
SMILES,MT1-MMP act inh,Env fusion inh,UUG fidelity,CSC inhib,others
O=C(N[C@H]1CC[C@@H](CCn2cc(-c3ccccn3)nn2)O[C@H]1CO)c1ccccc1,·,-5[16.7 µM],-8,·,
CCCNC(=O)N(C)C[C@H]1Oc2ncc(C#C[C@H](C)O)cc2C(=O)N([C@H](C)CO)C[C@H]1C,·,5[16.7 µM],13,·,
C[C@@H]1CCCCO[C@H](CN(C)S(=O)(=O)c2ccc(F)cc2)[C@@H](C)CN([C@@H](C)CO)C(=O)c2cc(NC(=O)c3ccncc3)ccc2O1,·,-21[16.7 µM],3,·,
C[C@@H]1CN([C@H](C)CO)C(=O)c2cc(N(C)C)ccc2O[C@@H](C)CCCCO[C@@H]1CN(C)S(=O)(=O)c1ccccc1,·,-14[16.7 µM],0,·,
C/C=C/c1ccc2c(c1)O[C@@H](CN(C)C(=O)c1ccc(F)cc1)[C@H](C)CN([C@H](C)CO)S2(=O)=O,·,-15[16.7 µM],25,·,
C[C@H]1CN([C@@H](C)CO)C(=O)c2cc(-c3cccnc3)cnc2O[C@@H]1CN(C)C(=O)c1cccc(F)c1,·,-31[16.7 µM],1,·,
C[C@H]1CCCCO[C@@H](CN(C)Cc2ccc3c(c2)OCO3)[C@@H](C)CN([C@@H](C)CO)C(=O)c2cc(NS(=O)(=O)c3cccs3)ccc2O1,·,0&1[16.7 µM],51&27,·,
C[C@H]1CN([C@@H](C)CO)C(=O)CCCn2cc(nn2)CO[C@H]1CN(C)S(=O)(=O)c1cccc(F)c1,·,11[16.7 µM],18,·,
CCC(=O)N(C)C[C@@H]1Oc2ncc(C#C[C@H](C)O)cc2C(=O)N([C@@H](C)CO)C[C@@H]1C,·,-12[16.7 µM],8,·,
COc1ccc(NC(=O)N(C)C[C@H]2Oc3c(NS(=O)(=O)c4ccc(OC)cc4)cccc3C(=O)N([C@H](C)CO)C[C@H]2C)cc1,·,-24[16.7 µM],23,·,
C[C@H](CO)N1C[C@H](C)[C@H](CN(C)Cc2ccc(C(F)(F)F)cc2)Oc2ccc(NC(=O)Nc3ccc(C(F)(F)F)cc3)cc2C1=O,·,-6[16.7 µM],-2,·,
CN(C)CC(=O)Nc1ccc2c(c1)[C@@H]1C[C@@H](CC(=O)NCCc3ccccc3)O[C@H](CO)[C@@H]1O2,·,-14[16.7 µM],8,·,
COC(=O)C[C@H]1C[C@@H]2c3cc(NS(=O)(=O)c4cccc(OC)c4)ccc3O[C@@H]2[C@H](CO)O1,·,-2[16.7 µM],-8,·,
CCCC(=O)Nc1ccc2c(c1)C(=O)N(C)[C@H]1CC[C@@H](CC(=O)NCc3ccccc3)O[C@H]1CO2,·,0[16.7 µM],4,·,
Cc1ccc(S(=O)(=O)NCC[C@H]2CC[C@@H](NC(=O)Nc3cccc(F)c3)[C@@H](CO)O2)cc1,·,5[16.7 µM],2,·,
C[C@H]1CN([C@@H](C)CO)C(=O)c2cc(NC(=O)Nc3ccccc3)ccc2O[C@H]1CN(C)C(=O)Nc1ccc(C(F)(F)F)cc1,·,7[16.7 µM],0,·,
C[C@@H]1CN([C@@H](C)CO)C(=O)c2cc(NC(=O)Nc3ccccc3)ccc2O[C@@H](C)CCCCO[C@@H]1CN(C)C(=O)CCCN(C)C,·,-5[16.7 µM],6,·,
C[C@@H]1CN([C@H](C)CO)C(=O)c2cc(NC(=O)CCN3CCOCC3)ccc2O[C@H]1CN(C)S(C)(=O)=O,·,3[16.7 µM],-2,·,
O=C(C[C@H]1C[C@H]2c3cc(NC(=O)NC4CCCC4)ccc3O[C@H]2[C@H](CO)O1)NCc1cc(F)ccc1F,·,11[16.7 µM],-7,·,
C[C@H](CO)N1C[C@H](C)[C@H](CN(C)S(=O)(=O)c2cn(C)cn2)OCCCC[C@H](C)Oc2ccc(NC(=O)CCC(F)(F)F)cc2C1=O,·,?,5,·,
CO[C@@H]1CN(C)C(=O)c2cc(NC(=O)C3CCCC3)ccc2OC[C@H](C)N(C(=O)CC2CC2)C[C@H]1C,·,-8[16.7 µM],13,·,
C=CC[C@]1(C(=O)NCc2ccccc2)COC(c2ccc(OCCCO)cc2)=N1,·,-3[16.7 µM],0,·,
C[C@@H]1CCCCO[C@@H](CN(C)Cc2ccc3c(c2)OCO3)[C@@H](C)CN([C@@H](C)CO)C(=O)c2cc(NC(=O)Nc3ccccc3)ccc2O1,·,6[16.7 µM],3,·,
Cc1noc(C)c1S(=O)(=O)Nc1cccc2c1O[C@@H](CN(C)C(=O)Nc1ccccc1)[C@@H](C)CN([C@H](C)CO)C2=O,·,-27[16.7 µM],2,·,
C[C@H](NC(=O)C[C@H]1CC[C@@H](NC(=O)CN2CCOCC2)[C@H](CO)O1)c1ccccc1,·,0[16.7 µM],-18,·,

# The list continues:
SMILES,MT1-MMP act inh,Env fusion inh,UUG fidelity,CSC inhib,others
C[C@@H]1CN([C@@H](C)CO)C(=O)c2cc(NS(=O)(=O)c3ccc(F)cc3)ccc2O[C@@H](C)CCCCO[C@H]1CN(C)Cc1ccc2c(c1)OCO2,·,-18[16.7 µM],26,·,
CCCN(C)C[C@@H]1Oc2ncc(-c3cccc(F)c3)cc2C(=O)N([C@H](C)CO)C[C@@H]1C,·,-3[16.7 µM],31,·,
O=C(N[C@H]1CC[C@H](CCNC(=O)C2CCOCC2)O[C@H]1CO)c1ccncc1,·,1[16.7 µM],-16,·,
CCCC#Cc1cnc2c(c1)C(=O)N([C@H](C)CO)C[C@@H](C)[C@@H](CN(C)C(=O)Cc1ccncc1)O2,·,-14[16.7 µM],-8,·,
COc1ccc(NC(=O)Nc2ccc3c(c2)C(=O)N([C@H](C)CO)C[C@H](C)[C@@H](CN(C)C(=O)Nc2cccc4ccccc24)OCCCC[C@H](C)O3)cc1,·,-10[16.7 µM],-1,·,
CC(=O)N(C)C[C@@H]1Oc2ncc(-c3cccnc3)cc2C(=O)N([C@H](C)CO)C[C@@H]1C,·,-22[16.7 µM],-6,·,

# Structures listed so far that have a furan ring, fused or not:
SMILES,MT1-MMP act inh,Env fusion inh,UUG fidelity,CSC inhib,others
O=C(NCc1ccco1)c1ccc(Cl)c(S(=O)(=O)N2CCCC2)c1,1,·,·,-10,MT1-MMP act inh RFP=-2
CCOC(=O)c1c(C)[nH]c(C(=O)COC(=O)c2cc(C)oc2C)c1C,2,·,·,-8,MT1-MMP act inh RFP=0

# As a working copy, part of the list above.
SMILES,MT1-MMP act inh,Env fusion inh,UUG fidelity,CSC inhib,others
COc1ccc(NC(=O)Nc2ccc3c(c2)C(=O)N([C@H](C)CO)C[C@H](C)[C@@H](CN(C)C(=O)Nc2cccc4ccccc24)OCCCC[C@H](C)O3)cc1,·,-10[16.7 µM],-1,·,
CC(=O)N(C)C[C@@H]1Oc2ncc(-c3cccnc3)cc2C(=O)N([C@H](C)CO)C[C@@H]1C,·,-22[16.7 µM],-6,·,

# A portion of the library; rates above refer to the full screens.
